High-throughput results deposited in PubChem BioAssay by several laboratories.
Mtb hypoxia inh: inhibitors of hypoxia-regulated fluorescent reporter in Mycobacterium tuberculosis; M. tuberculosis hypoxia-regulated fluorescent reporter, fluorescence; fluorescence inhibition, % (no concentration beside the values); actives 0.1% (n = 300,000);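 active means 35 to 45% if threefold the growth effect, above 45% if 1.5-fold the growth effect; inactive means the rest, general growth blockers included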;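 further: wells of about 50 µL received 100 nL stock; 0% = vehicle wells and 100% = reference inhibitor wells; whole bacteria with a GFP reporter of the hypoxia response; strong numbers were not always called active; many hits fall short of the cut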
RN4220 kill: S. aureus RN4220 growth inhibition; OD600, 16 h; inhibition, % (test concentration not listed); actives 0.33% (n = 330,000); AID 1259311;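 active means z-score of -3 or lower and OD600 up to 0.18 on both plates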;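 further: plate controls were untreated cells for no effect and reference antibiotic for full effect; stock transfer was 100 nL into about 80 µL; one replicate is shown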
Sa ugtP lethal: kills S. aureus RN4220 lacking UgtP; S. aureus RN4220 ugtP deletion, OD600 growth, 16 h; some inactives read as strong as hits; growth inhibition, % (concentration not given with the values); actives 0.54% (n = 330,000); AID 1259309;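 active means z-score under -3 and OD600 up to 0.15 on both plates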;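 further: plate controls were untreated wells for no effect and antibiotic for full effect; wells of about 80 µL received 100 nL stock; the first replicate is given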
PrP UTR inh: suppresses PrP 5' UTR mRNA reporter expression. actives 0.35% (n = 340,000). inhibition, % (no concentration beside the values). cell-based PrP 5' UTR mRNA reporter, plate reader;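 active means every replicate at 50% or more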;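 further: 0 = median of the neutral control wells; tested in H4 reporter cells; numbers are from one replicate; inactives centre near -14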
BJeLR lethal: BJeLR cell viability loss. BJeLR (HRASV12) viability, CellTiter-Glo ATP luminescence, 48 h; reference of the scale not given here. inhibition, % (no concentration beside the values). actives 0.17% (n = 300,000). AID 1554;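 active means replicate mean above 50%; inconclusive means above 50% but judged a plate artefact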;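 further: 50 nL library stock added to about 25 µL; numbers are from one replicate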
Bead autofluor: flagged as autofluorescent in microsphere protease counterscreen; compound autofluorescence counterscreen, microsphere flow cytometry; stronger effect = higher value; fluorescence intensity (no concentration beside the values); actives 3.1% (n = 360,000); AID 624483;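 active means at least 3 SD above the mean of all compounds, about 16000 in these data; inconclusive means too few beads counted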;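 further: 100 nL of 1 mM stock went into each well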
Mtb hypoxia inh growth: second read-out of Mtb hypoxia inh, no call of its own (marks repeat the call); growth inhibition, %; measured here: M. tuberculosis growth (absorbance);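 0% = vehicle and 100% = reference antibiotic; read after six days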
An asterisk follows results filed as active; ? = inconclusive; · = no result given.

SMILES	Mtb hypoxia inh	Sa ugtP lethal	BJeLR lethal	RN4220 kill	PrP UTR inh	Bead autofluor	Mtb hypoxia inh growth
Cc1ccc(S(=O)(=O)NC(=S)c2ccccc2)cc1	10	3	-3	8.2	-21	3796	-1
COc1ccc(OC)c(C=NNC(=O)CNC(=O)c2ccc(S(=O)(=O)N3CCCC3)cc2)c1	3	0	·	3.2	·	·	3
c1ccc(-c2noc(CSc3nc4ccccc4o3)n2)cc1	14	15	-1	15	-10	9357	10
O=C(CSc1ccc2ccccc2c1)Nn1cnnc1	·	4	0	1.4	-17	4186	·
COC(=O)c1cccc(NC(=O)CSc2nnc(C)o2)c1	-9	3	5	-4.7	-10	6249	10
CCOC(=O)c1ccc(N2C(=O)CC(SCC(=O)Nc3ccc(S(N)(=O)=O)cc3)C2=O)cc1 (configuration not stated)	11	11	7	12	-16	2503	0
Cc1ccccc1CC(=O)Nc1ccc2c(c1)CCC2	10	6	4	3.6	-15	3329	11
Cc1cccc(S(=O)(=O)Nc2nc3ccccc3nc2OC(C)C)c1	16	15	-2	6.1	-50	3420	9

Looked up above:
RN4220 kill, CCOC(=O)c1ccc(N2C(=O)CC(SCC(=O)Nc3ccc(S(N)(=O)=O)cc3)C2=O)cc1 (configuration not stated) stands at 12
PrP UTR inh, Cc1ccc(S(=O)(=O)NC(=S)c2ccccc2)cc1 stands at -21
Mtb hypoxia inh growth, COc1ccc(OC)c(C=NNC(=O)CNC(=O)c2ccc(S(=O)(=O)N3CCCC3)cc2)c1 stands at 3
Mtb hypoxia inh growth, c1ccc(-c2noc(CSc3nc4ccccc4o3)n2)cc1 stands at 10
Bead autofluor, O=C(CSc1ccc2ccccc2c1)Nn1cnnc1 stands at 4186

Ordered by molar mass (descending): three of the compounds above.
SMILES	Mtb hypoxia inh	Sa ugtP lethal	BJeLR lethal	RN4220 kill	PrP UTR inh	Bead autofluor	Mtb hypoxia inh growth
Cc1ccc(S(=O)(=O)NC(=S)c2ccccc2)cc1	10	3	-3	8.2	-21	3796	-1
O=C(CSc1ccc2ccccc2c1)Nn1cnnc1	·	4	0	1.4	-17	4186	·
Cc1ccccc1CC(=O)Nc1ccc2c(c1)CCC2	10	6	4	3.6	-15	3329	11

(list continues)
SMILES	Mtb hypoxia inh	Sa ugtP lethal	BJeLR lethal	RN4220 kill	PrP UTR inh	Bead autofluor	Mtb hypoxia inh growth
CC(=O)c1cccc(NCC(=O)c2ccc(C)c([N+](=O)[O-])c2)c1	-7	5	-1	0.0	-12	3763	1
Cc1ccc(S(=O)(=O)NC(C)(C)CSc2nncn2N)cc1	·	1	-6	-2.8	-13	4232	·
Cc1cc(OCC(=O)NCCCn2ccnc2)c2c(C)c(C)c(=O)oc2c1	-9	-8	-1	-3.0	-8	5460	-2
CC(C)C(NC(=O)C12CC3CC(CC(C3)C1)C2)C(=O)N/N=C/C1=C(N2CCOCC2)C(=C\c2cccc([N+](=O)[O-])c2)/CC1 (configuration not stated)	·	·	-6	·	-12	2499	·
Cc1ccc(C)c(NC(=O)CN(C)C(=O)c2cccc(N3C(=O)CCC3=O)c2)c1	14	8	-1	3.4	-30	5960	-7
COc1cccc(C=NNc2ccc(S(=O)(=O)O)cc2)c1O	9	-2	·	9.1	·	·	1
COc1cccc(C(=O)CSc2nc3ccccc3n2CC(=O)N2CCOCC2)c1	1	-9	8	-0.3	-41	9737	4
O=S1(=O)CCC(NS(=O)(=O)c2ccc3ccccc3c2)C1 (configuration not stated)	6	0	5	4.5	-24	4402	2

(continued)
SMILES	Mtb hypoxia inh	Sa ugtP lethal	BJeLR lethal	RN4220 kill	PrP UTR inh	Bead autofluor	Mtb hypoxia inh growth
O=C(Cc1ccc(S(=O)(=O)N2CCOCC2)s1)NCC(=O)Nc1ccccc1Br	·	·	-4	·	-11	6983	·
Cc1ccc(C)c(N(CC(=O)NN=Cc2ccc(-c3ccc([N+](=O)[O-])cc3)o2)S(=O)(=O)c2ccccc2)c1	-3	-17	·	-7.1	·	·	-5
Cc1cc(C)cc(OCc2nnc(SCC(=O)N3CCN(c4ccccc4)CC3)o2)c1	·	4	6	7.3	3	2584	·
Cn1c2ccccc2c2nnc(SCC(=O)Nc3cccc(O)c3)nc21	1	10	-10	0.0	-19	3172	-8
O=C(N1CCOCC1)N1c2ccccc2CC(N2CCOCC2)c2ccccc21 (configuration not stated)	·	-3	·	8.9	-1	2266	·
O=C1C=C(NC2CCCCC2)CCC1	2	-1	-4	3.7	-28	3834	7
COc1cc(C(C(=O)NCc2ccccc2)N(Cc2ccco2)C(=O)c2cnccn2)cc(OC)c1OC (configuration not stated)	7	5	-4	6.1	-9	4175	6
CN(C(=O)c1ccc(NC(=O)Cc2ccc(NC(=O)C3CCCN(C(=O)c4ccccc4)C3)cc2)cc1)C1CCCC1 (configuration not stated)	-8	-2	·	0.3	6	3107	-9

Record cards, as listed above. Screens in order: Mtb hypoxia inh	Sa ugtP lethal	BJeLR lethal	RN4220 kill	PrP UTR inh	Bead autofluor	Mtb hypoxia inh growth
`O=C(N1CCOCC1)N1c2ccccc2CC(N2CCOCC2)c2ccccc21` (configuration not stated) in the list: ·	-3	·	8.9	-1	2266	·
`O=C(Cc1ccc(S(=O)(=O)N2CCOCC2)s1)NCC(=O)Nc1ccccc1Br` in the list: ·	·	-4	·	-11	6983	·
`Cc1cc(C)cc(OCc2nnc(SCC(=O)N3CCN(c4ccccc4)CC3)o2)c1` in the list: ·	4	6	7.3	3	2584	·
`CN(C(=O)c1ccc(NC(=O)Cc2ccc(NC(=O)C3CCCN(C(=O)c4ccccc4)C3)cc2)cc1)C1CCCC1` (configuration not stated) in the list: -8	-2	·	0.3	6	3107	-9
`O=C1C=C(NC2CCCCC2)CCC1` in the list: 2	-1	-4	3.7	-28	3834	7

New compounds follow.
SMILES	Mtb hypoxia inh	Sa ugtP lethal	BJeLR lethal	RN4220 kill	PrP UTR inh	Bead autofluor	Mtb hypoxia inh growth
O=C1N=C(N2CCOCC2)S/C1=C\c1cccnc1	0	5	5	5.4	1	4404	5
CCOC(=O)C[C@H]1c2cc(F)ccc2S(=O)(=O)N1C(C)(C)C	·	·	1	·	-16	4070	·
COc1ccc(-n2ncc3c(=O)n(CC(=O)N(C(C)C)C(C)C)cnc32)cc1	·	·	3	·	-19	3905	·
COc1cc(C2c3sc(=O)[nH]c3SC3C(=O)N(c4ccc(C)cc4)C(=O)C32)ccc1O (configuration not stated)	·	·	1	·	-8	4856	·
Cc1ccc(OCc2cc(C(=O)N3CCC(c4ccccc4Cl)C3)no2)cc1C (configuration not stated)	7	1	7	-1.7	-33	6705	1
CC(=O)Nc1ccc(CC(=O)NCCC(c2ccccc2)c2ccccc2)cc1	-1	7	2	0.7	-17	4025	-6
CCOC(=O)C1CCN(C(=O)c2ccccc2N(C)S(=O)(=O)c2ccccc2)CC1	6	1	-3	1.9	-58	2022	6
Cc1cc(=O)[nH]c(N=N/C(=N/Nc2ccccc2C)c2ccccc2)n1	·	·	6	·	18	?	·

(next part)
SMILES	Mtb hypoxia inh	Sa ugtP lethal	BJeLR lethal	RN4220 kill	PrP UTR inh	Bead autofluor	Mtb hypoxia inh growth
O=C(NC(Cc1ccccc1)C(=O)O)/C(=C\c1ccco1)NC(=O)c1ccc(Br)cc1 (configuration not stated)	·	1	2	2.7	-10	2594	·
O=C(NNC(=O)c1ccccc1-n1cccc1)c1ccc(Cl)nc1	-5	10	·	8.5	5	2816	-6
CCCCN(C(=O)c1ccc(NC(=O)C(C)C)cc1)c1ccccc1	-10	-7	-8	-1.5	-26	2216	10
CC(C)(C)CC(C)(C)NC(=S)Nc1ccc2nc(-c3ccccn3)c(-c3ccccn3)nc2c1	3	14	-2	15	-14	6947	5
CC(=O)Nc1cccc(NS(=O)(=O)c2cn(C)c(=O)n(C)c2=O)c1	10	-3	-29	-8.6	-27	6525	8
O=C(CSc1ccc(-c2ccc(F)cc2)nn1)NC1CCCCC1	-3	15	-4	-0.5	-19	5659	-22
Cc1ccc(S(=O)(=O)N(C)C[C@H]2Oc3ccc(NC(=O)C4CCCCC4)cc3C(=O)N([C@H](C)CO)C[C@H]2C)cc1	-1	-28	·	-9.5	-37	3877	10
COc1ccc(NC(=S)Nc2cc(C)ccn2)c(OC)c1	17	0	9	2.4	-99	2404	15

Going on with the list.
SMILES	Mtb hypoxia inh	Sa ugtP lethal	BJeLR lethal	RN4220 kill	PrP UTR inh	Bead autofluor	Mtb hypoxia inh growth
COc1cccc(C(=O)NC2CC(C)(C)Cc3c2cnn3-c2cccc(F)c2)c1OC (configuration not stated)	4	1	6	2.2	-23	?	-5
COc1cccc(OC)c1-c1nn2c(-c3cc(-c4ccccc4)n[nH]3)nnc2s1	·	·	-7	·	-16	2312	·
Cc1ccc(C(=O)Nc2cc(Cl)ccc2-n2cncn2)s1	6	9	-4	3.2	-18	?	-3
COc1ccc(N(C(=O)c2snc(C(N)=O)c2N)C(C(=O)NCC2CCCO2)c2ccc(C)o2)cc1OC (configuration not stated)	7	9	-5	2.2	-27	3577	7
C=CCn1c(SCc2ccc([N+](=O)[O-])cc2)nnc1C(C)NC(=O)c1ccccc1 (configuration not stated)	4	5	-3	-2.1	-25	11123	1
COc1cc(C2C(C(N)=O)=C(C)Nc3nc(CCCO)nn32)cc(OC)c1OC (configuration not stated)	·	14	-1	4.9	-12	6037	·
O=C(Nc1cccc(S(=O)(=O)N2CCCCC2)c1)c1ccc2ncsc2c1	-6	-3	0	-1.2	-13	4525	-11
CC(=O)/C=C/c1ccccc1Oc1c(F)c(F)nc(F)c1F	-5	-6	13	-4.4	-24	2876	-9

(further entries)
SMILES	Mtb hypoxia inh	Sa ugtP lethal	BJeLR lethal	RN4220 kill	PrP UTR inh	Bead autofluor	Mtb hypoxia inh growth
COc1ccccc1-c1nnc2n1N=C(c1ccc(OC(F)F)c(OCC3CC3)c1)CS2	22	2	·	8.6	-4	3732	6
Cc1ccc(Nc2nc(-c3ccc(C)cc3)c(CC(=O)O)s2)cc1	4	12	2	6.5	-25	6922	6
O=C(NNc1ccc([N+](=O)[O-])cc1[N+](=O)[O-])C1C2CCCCC21 (configuration not stated)	0	4	-1	13	-14	2486	5
CCOc1ccc(C(C)NC(=O)C2CCC2)cc1 (configuration not stated)	2	-1	-2	4.9	-15	2437	14
CCOc1ccc(OCC)c(S(=O)(=O)n2cc(C)nc2CC)c1	8	8	-7	-9.8	-16	4084	12
C=CCn1c(SC2CCOC2=O)nc2scc(C3CC3)c2c1=O (configuration not stated)	7	0	1	-2.1	-33	8186	-2
Cc1ccc2c(C)c(C(=O)N(C)CCC3CCCCO3)oc2c1C (configuration not stated)	·	·	-11	·	-16	6060	·
O=C(c1ccc(Cl)cc1)N1CCCOC1	10	-1	15	1.1	-21	4054	6
N#CCc1ccc(NC(=O)c2ccccc2C(=O)Nc2ccc(CC#N)cc2)cc1	0	4	-2	5.3	-15	3688	9
Cn1c(C(=O)N/N=C/c2ccccc2)cc2ccccc21	·	·	-3	·	-50	3532	·
